Bioassay records deposited in PubChem by National Center for Advancing Translational Sciences (NCATS).
CtBP-E1A blk: qHTS Assay for Inhibitors of the CtBP/E1A Interaction; CtBP / adenovirus E1A interaction (AlphaScreen); AlphaScreen GST-E1A/His-CtBP binding, 1536-well; stronger effect = lower value; control for the full effect not named in the record; activity change, % (test concentration not listed); 0.49% of 340,000 active; in the data active means activity change below about -65%; inconclusive means about -30% to -65%; inactive means above about -30%; also: % is scaled to controls: 0 for no effect and ±100 for the full control effect; compound concentration not given in the record
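AlphaScreen with 125 nM GST-E1A and 125 nM His-CtBP (5X stocks) in Tris pH 8.0, 300 mM NaCl, BSA, Tween 20, TCEP. Compounds preincubated 2 h at 37 deg C, then glutathione donor/nickel acceptor beads added for 1 h at 37 deg C in dark.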
TRPV1 potentiator: HTS Assay for Compounds that Act as Potentiators of the Vanilloid Receptor 1; 0.02% of 320,000 active; TRPV1-expressing cells, Fluo-8 calcium influx, capsaicin EC20 potentiation; host cell line not named in the record; control for the full effect not named in the record; potentiation, % at 8.33 µM; Transient receptor potential cation channel subfamily V member 1 (Homo sapiens), Q8NER1; active means potentiation above 80%; inconclusive means 30% to 80%; inactive means below 30%; also: 0% is about no effect
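TRPV1-expressing cells were cultured overnight at 35.5C and loaded with Fluo-8 calcium dye for 40 to 90 min at room temperature. After a 10 s baseline, compound was added and calcium influx was read kinetically for 3 min (ex 480/em 520 nm).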
Six1-Eya2 inh: qHTS Assay for Inhibitors of the Six1/Eya2 Interaction; Homeobox protein SIX1 (Homo sapiens) + Protein phosphatase EYA2 (Homo sapiens), …; 0.56% of 360,000 active; AID 651725, 2012; AlphaScreen GST-Six1/His-Eya2 binding, biochemical; stronger effect = lower value; control for the full effect not named in the record; activity change, % (no concentration beside the values); in the data active = activity change below about -65%; inconclusive = about -30% to -65%; inactive = above about -30%; also: % is scaled to controls: 0 for no effect and ±100 for the full control effect; compound concentration not given in the record
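AlphaScreen with GST-Six1 and His-Eya2 (5X mix: 250 nM and 500 nM), glutathione donor and nickel acceptor beads; buffer 50 mM Tris pH 8.0, 300 mM NaCl, 1 mM TCEP; 1 h at 37 C in the dark.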
TRPML1 ag: qHTS for Agonists of the Human Mucolipin Transient Receptor Potential 1 (TRPML1); Mucolipin-1 (Homo sapiens), Q9GZU1; TRPML1-expressing cells, Ca2+ dye fluorescence, FDSS; host cell line not named in the record; reference of the full effect not given here; activation, % (concentration not given with the values); 0.12% of 410,000 active; AID 624414, 2012; in the data active = activation above about 50%; inconclusive = about 30% to 50%; inactive = below about 30%; also: 0% is about no effect; the text of the record puts the active cut at 80%
Target sequence (Q9GZU1 whole entry, looked up): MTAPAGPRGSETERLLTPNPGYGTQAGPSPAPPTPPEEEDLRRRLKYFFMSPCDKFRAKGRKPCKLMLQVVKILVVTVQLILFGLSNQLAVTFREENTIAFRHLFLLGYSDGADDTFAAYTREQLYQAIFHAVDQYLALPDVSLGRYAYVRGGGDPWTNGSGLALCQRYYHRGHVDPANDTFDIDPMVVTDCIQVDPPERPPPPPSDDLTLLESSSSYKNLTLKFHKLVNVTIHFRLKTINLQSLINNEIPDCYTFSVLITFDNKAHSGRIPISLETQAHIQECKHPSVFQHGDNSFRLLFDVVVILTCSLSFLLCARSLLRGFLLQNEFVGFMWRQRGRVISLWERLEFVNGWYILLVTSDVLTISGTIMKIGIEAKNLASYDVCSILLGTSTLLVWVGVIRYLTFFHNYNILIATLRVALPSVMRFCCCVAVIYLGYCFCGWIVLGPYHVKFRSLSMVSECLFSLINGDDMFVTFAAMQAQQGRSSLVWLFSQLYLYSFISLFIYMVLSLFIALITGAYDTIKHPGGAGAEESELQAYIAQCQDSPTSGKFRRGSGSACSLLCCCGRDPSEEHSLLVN
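Calcium fluorescence on an FDSS kinetic reader gave the read-out. Tet-induced TRPML1-DL cells were plated overnight, dye-loaded (Ca8 with quencher, 45-90 min, room temperature, dark), then read 110 s after compound addition, and again 110 s after 4uM final 54-4 (EC80).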
D2 potentiator: Beta-Arrestin HTS for Positive Allosteric Modulators of the Human D2 Dopamine Receptor: Potentiators; 0.23% of 360,000 active; DiscoveRx D2 beta-arrestin cells, luminescence, 90 min; 100% = 57 uM dopamine signal; potentiation, % (test concentration not listed); active = potentiation of 50% or more; inconclusive = 30% to 50%; inactive = 30% or less;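 also: compound concentration not given in the record; tested on top of an EC20 dose of dopamine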
Target sequence (P14416 whole entry, looked up): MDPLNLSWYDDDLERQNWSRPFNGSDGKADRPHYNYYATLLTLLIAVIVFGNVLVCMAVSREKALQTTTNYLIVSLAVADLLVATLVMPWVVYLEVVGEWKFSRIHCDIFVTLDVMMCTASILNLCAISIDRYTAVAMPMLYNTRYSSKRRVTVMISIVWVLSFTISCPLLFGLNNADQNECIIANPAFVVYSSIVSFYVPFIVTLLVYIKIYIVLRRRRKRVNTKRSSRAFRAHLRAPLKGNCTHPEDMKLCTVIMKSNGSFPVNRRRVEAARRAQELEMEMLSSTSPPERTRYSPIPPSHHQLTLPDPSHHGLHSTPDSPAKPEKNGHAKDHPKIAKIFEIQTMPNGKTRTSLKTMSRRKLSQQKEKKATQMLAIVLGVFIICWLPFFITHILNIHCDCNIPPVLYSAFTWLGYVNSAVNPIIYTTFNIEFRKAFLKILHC
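PathHunter D2 cells, attached overnight at 37 deg C, received compound in DMSO plus dopamine at EC20 (50 nM final) for 90 min at 37 deg C. Beta-arrestin recruitment was read as luminescence after 1 h with detection reagent at ambient temperature.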
TRPML1 blocker: qHTS for Inhibitors of the Human Mucolipin Transient Receptor Potential 1 (TRPML1); activity change, negative = inhibition, % (test concentration not listed); TRPML1-inducible cells, Ca2+ dye fluorescence, FDSS; stronger effect = lower value; inhibition of EC80 agonist-evoked calcium signal; 0.02% of 390,000 active; AID 624415, 2012; Mucolipin-1 (Homo sapiens), Q9GZU1; in the data active means activity change below about -50%; inconclusive means about -30% to -50%; inactive means above about -30%;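 also: stimulus is agonist 54-4 at its EC80 concentration; % is scaled to controls: 0 for no effect and ±100 for the full control effect; compound concentration not given in the record; the text of the record puts the active cut at -80%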
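Calcium fluorescence in TRPML1-DL cells induced overnight with Tet: a 110 s read after compound pin addition, then a 110 s antagonist read after challenge with 54-4 at 4 uM final (EC80).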
The depositor's hits bear a star; ? = inconclusive; / = not tested or not shown.

item	molecule	CtBP-E1A blk	TRPV1 potentiator	Six1-Eya2 inh
1	CC(=O)N=Cc1c(C)c(C#N)c(=O)n(C)c1O	/	-3	-1
2	O=C(c1coc2ccc(O)cc12)C1CC1	-5	4	5
3	COC(=O)C1=C(C)N(CC2CCCO2)C(=O)/C1=C\c1ccc(O)cc1 (centres undefined)	2	0	9
4	COc1ccc(NC(=S)N(CCCN2CCOCC2)Cc2ccco2)cc1	0	3	6
5	CC(=O)c1ccc(COC(=O)c2cc3ccccc3oc2=O)cc1	-3	0	-6
6	O=C(c1ccco1)N1CCN(CC(=O)N(C2CCCCC2)C2CCS(=O)(=O)C2)CC1 (centres undefined)	1	4	4
7	Cc1ccc2c(C)c(C(=O)N(C)C(C)c3ccncn3)oc2c1C (centres undefined)	0	10	-1
8	O=c1cc(CN2CCOCC2)c2cc(Cl)ccc2o1	6	8	1

item	TRPML1 ag	D2 potentiator	TRPML1 blocker
1	1.3	3	-5
2	1.6	5	0
3	2.4	-7	-11
4	-0.8	-15	-9
5	0.8	-3	3
6	0.0	-17	11
7	-0.3	-5	17
8	/	-1	/

Overlap with the part before: two entries, followed by the next part.
item	molecule	CtBP-E1A blk	TRPV1 potentiator	Six1-Eya2 inh
7	Cc1ccc2c(C)c(C(=O)N(C)C(C)c3ccncn3)oc2c1C (centres undefined)	0	10	-1
8	O=c1cc(CN2CCOCC2)c2cc(Cl)ccc2o1	6	8	1
9	CC(C)(CNC(=O)C1CCCC1)CNC(=O)C1CCCC1	6	-7	2
10	O=C1N(Cc2cccnc2)C[C@@H]2C[C@@H](c3cccc(OCc4ccccc4)c3)N3CCC[C@@]123	-10	14	-28
11	Cc1ccc(C(=O)N/C(=C/c2ccccc2)C(=O)NCc2ccncc2)cc1	5	-27	0
12	CN1C=CC(=O)[C@@H](OC(=O)Nc2ccc(Br)cc2)[C@H]1c1ccccc1Br	0	/	5
13	Cc1cc(C(=O)N/N=C/c2ccc(-c3ccc(C)c(Cl)c3)o2)n[nH]1	0	11	-5
14	O=C(NCCc1ccccc1)C1CCN(S(=O)(=O)N2CCCCC2)CC1	2	-4	1
15	CCCC(C)c1nnc(NC(=O)C2CCCO2)s1 (centres undefined)	4	-9	4
16	COc1cccc(-c2cc(C(=O)Nc3cccc(O)c3)no2)c1	42	-17	20

item	TRPML1 ag	D2 potentiator	TRPML1 blocker
7	-0.3	-5	17
8	/	-1	/
9	-0.8	10	-2
10	0.6	-12	16
11	0.2	-8	9
12	2.3	1	28
13	-0.9	-5	6
14	0.3	14	14
15	0.5	-4	8
16	2.4	-4	4

More compounds:
item	molecule	CtBP-E1A blk	TRPV1 potentiator	Six1-Eya2 inh
17	CC(=O)NC(CCCN1C(=O)c2ccccc2C1=O)c1nnn(C)n1 (centres undefined)	7	1	11
18	COc1ccc(C2Nc3ccccc3C(=O)N2NS(=O)(=O)c2ccc(C)cc2)c(OC)c1 (centres undefined)	3	2	8
19	O=C(COC(=O)c1ccc2ncsc2c1)NCc1ccc(F)cc1	/	-8	0
20	O=C1NC[C@@H](CCCCN2C[C@H](Cc3ccc(O)cc3)N(CCc3ccccc3)C(=O)C2=O)N(CCc2ccccc2)C1=O	6	/	-11
21	CCOC(=O)c1c(C)[nH]c(C(=O)COC(=O)CCC2CCCC2)c1C	0	7	6
22	COc1cc(C(=O)NC2CC3CCCC(C2)N3C2CC2)cc(OC)c1OC (centres undefined)	10	7	-9
23	Cc1ccc(CC(=O)N2CCN(c3ccc([N+](=O)[O-])cc3)CC2)cc1	-8	-12	-9
24	O=C1CC(N2CCN(c3ccc(O)cc3)CC2)C(=O)N1Cc1cccs1 (centres undefined)	11	6	11

item	TRPML1 ag	D2 potentiator	TRPML1 blocker
17	0.5	-11	3
18	0.5	-3	-6
19	-0.3	-4	-8
20	-0.5	/	/
21	0.8	4	-6
22	-0.4	-12	-6
23	0.2	-9	6
24	-0.7	28	-2

(listing goes on)
item	molecule	CtBP-E1A blk	TRPV1 potentiator	Six1-Eya2 inh
25	Cc1ccc(C(=O)c2nc3c(n2O)CCCC3)cc1	-1	11	-12
26	CCOC(=O)CCNCc1ccc(OC)c(OC)c1	3	-15	3
27	NS(=O)(=O)c1cccc(NC(=O)CCSc2ccccc2Cl)c1	2	-3	5
28	CCc1ccc(N(CC(=O)NCc2ccco2)C(=O)CCC(=O)Nc2ccccn2)cc1	-7	28	-18
29	CC1CCN(S(=O)(=O)c2ccc(NC(=O)Cn3nnc(-c4ccccc4)n3)cc2)CC1	3	-13	-4
30	COc1cc2c(c(OC)c1OC)-c1ccc(OC)c(=O)cc1[C@@H](N(C)CC#CCO)CC2	-2	-18	-6
31	O=C(c1ccc2c(c1)OCO2)N1CCCC(c2ccccc2)C1 (centres undefined)	0	-12	21
32	O=C1C=C(NCCN2CCOCC2)CC(c2ccccc2)C1 (centres undefined)	6	-2	-2

item	TRPML1 ag	D2 potentiator	TRPML1 blocker
25	-0.2	-30	7
26	/	-14	/
27	0.6	-17	-13
28	0.7	-21	-13
29	-0.5	2	7
30	-0.3	-4	2
31	-0.2	-7	-5
32	0.2	-17	2

Arranged by SMILES length (falling): 5 of the compounds above
item	molecule	CtBP-E1A blk	TRPV1 potentiator	Six1-Eya2 inh
28	CCc1ccc(N(CC(=O)NCc2ccco2)C(=O)CCC(=O)Nc2ccccn2)cc1	-7	28	-18
27	NS(=O)(=O)c1cccc(NC(=O)CCSc2ccccc2Cl)c1	2	-3	5
31	O=C(c1ccc2c(c1)OCO2)N1CCCC(c2ccccc2)C1 (centres undefined)	0	-12	21
32	O=C1C=C(NCCN2CCOCC2)CC(c2ccccc2)C1 (centres undefined)	6	-2	-2
26	CCOC(=O)CCNCc1ccc(OC)c(OC)c1	3	-15	3

item	TRPML1 ag	D2 potentiator	TRPML1 blocker
28	0.7	-21	-13
27	0.6	-17	-13
31	-0.2	-7	-5
32	0.2	-17	2
26	/	-14	/

Carrying on.
item	molecule	CtBP-E1A blk	TRPV1 potentiator	Six1-Eya2 inh
33	S=c1[nH]nc(-c2cc(-c3ccsc3)n[nH]2)n1-c1ccccc1	/	-1	3
34	O=C(CCCOc1ccccc1)Nc1nnc(C2CCCO2)s1 (centres undefined)	0	13	6
35	CCc1nnc(NS(=O)(=O)c2ccc(NC(=O)/C=C/C(=O)O)cc2)s1	0	-2	-5
36	CCC(=O)N1c2ccc(C)cc2C2=NNC(=S)NC21O (centres undefined)	-16	2	-23
37	COc1ccc(CC(=O)Oc2ccc(C)cc2Br)cc1OC	6	-4	3
38	CC(C(=O)NCc1ccco1)n1ccc2cc(S(=O)(=O)N3CCCC3)ccc21 (centres undefined)	1	-3	-3
39	COCCNc1nc(Oc2ccccc2)c2sccc2n1	4	/	8
40	O=C(Nc1ccncc1)c1ccc(Cl)c(S(=O)(=O)N2CCCCC2)c1	1	5	-8

item	TRPML1 ag	D2 potentiator	TRPML1 blocker
33	0.8	-1	12
34	0.8	3	15
35	0.2	-21	23
36	1.2	-2	-1
37	2.5	-5	1
38	-0.5	-2	4
39	-1.1	-7	/
40	0.9	-12	-1

Continued.
item	molecule	CtBP-E1A blk	TRPV1 potentiator	Six1-Eya2 inh
41	O=C(Nc1cccc(-c2cscn2)c1)C1CCN(Cc2ccccn2)CC1	/	16	-17
42	COc1ccc(N2CCN(c3nc4c(c(=O)n(C)c(=O)n4C)n3CCCc3ccccc3)CC2)cc1	0	6	0
43	CCN(CC)S(=O)(=O)c1cccc(-c2nc3n(n2)Cc2ccccc2-3)c1	-20	-11	-9
44	Cc1ccc(CN2CCC(=O)N2)cc1	/	23	4
45	COc1ccc(C(C(=O)NC2CCCC2)N(CCO)C(=O)Cn2nnc(-c3ccc(C)o3)n2)cc1 (centres undefined)	-4	1	-9
46	O=C1NC(=O)c2cc(NC(=O)c3cccc4ccccc34)ccc21	-5	-20	8
47	COC(=O)c1nc(N)sc1C(C)C	-9	24	6
48	CC(C)C1Nc2ccc(C(=O)NCc3ccco3)cc2NC1=O (centres undefined)	-1	5	-4

item	TRPML1 ag	D2 potentiator	TRPML1 blocker
41	-0.4	-9	-6
42	0.2	-9	25
43	0.0	-1	14
44	0.4	2	7
45	-0.1	-7	-15
46	0.3	2	12
47	-1.3	-3	0
48	-0.3	-5	-6

Next entries follow:
item	molecule	CtBP-E1A blk	TRPV1 potentiator	Six1-Eya2 inh
49	O=c1c2ccccc2nc(SCc2ccc([N+](=O)[O-])cc2)n1-c1ccccc1	?	9	-26
50	COc1ccc(-c2nc(CNS(=O)(=O)c3ccc(OC)c(OC)c3)cs2)cc1	5	13	3
51	CC(C)(C)c1ccc(COC(=O)CNC(=O)CNC(=O)Cc2ccccc2)cc1	3	28	3
52	Cc1nn(C)cc1CNC(=O)c1ccc(F)cc1	5	-8	-2
53	O=C(Cn1cnc2ccccc21)Nc1ccccc1-c1ccccc1	8	4	-20
54	FC(F)(F)c1nnc2c(Sc3ccc(Cl)cc3)nc3ccccc3n12	-3	-7	-2
55	O=c1cc(-c2ccccc2)oc2ccccc12	5	-4	2
56	CCC(C(=O)NCc1ccccc1OC)c1ccccc1 (centres undefined)	-9	-26	7
57	C/C(=N/NC(=O)c1ccccc1)C(=O)O	-25	-9	3
58	COC(=O)c1ccc(C(=O)OC)c(NC(=S)N2CCC(C)CC2)c1	7	-18	13

item	TRPML1 ag	D2 potentiator	TRPML1 blocker
49	-0.5	-5	0
50	-0.5	-3	-5
51	0.4	2	-16
52	-0.1	-17	-17
53	-0.6	-9	-14
54	0.0	-9	1
55	/	-11	/
56	5.1	-8	10
57	-0.4	1	10
58	0.7	-11	8
